# High-throughput results deposited in PubChem BioAssay by several laboratories.
# VCAM-1 inhibition: suppression of endothelial VCAM-1 upregulation – cell-based, plate reader, pooled HUVEC, TNFa stimulus (AID 454). 10,000 tested, 0.2% active. HUVEC TNFa-induced VCAM-1 surface immunofluorescence, plate reader; numbers were filed only for top-ranked candidate wells. inhibition, % at 5 µM;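 active = compound among top-ranked inhibitors of TNF-induced VCAM-1 adhesion protein staining, with the hit upheld by image or statistical review; inactive = the rest, including hits rejected on review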;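 note: 0% = TNFa with vehicle and 100% = cells without TNFa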
# VCAM-1 up imaging: enhancers of VCAM-1 display on endothelial cells, imaging, high-content imaging, pooled HUVEC, TNFa stimulus (AID 457). Pooled HUVEC, TNFa-induced VCAM-1 immunofluorescence imaging; hits of this screen are not shown here. calls only. 10,000 tested, 0.2% active;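 active = a top-ranked rise in VCAM-1 staining upheld on image or statistical review; inactive = the rest, including candidates rejected on review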;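 note: compounds tested at 5 µM in the well; cells exposed to compound for 24 hours before fixing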
# FPRL1 binder: human FPRL1 ligand, with FPR counter-screen; inhibition, %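 (tested at 6.7 µM)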; 24,000 tested, 0.3% active; AID 441; FPRL1-expressing cells, fluorescent ligand binding inhibition, flow cytometry;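 note: 0% = buffer alone and 100% = receptor blocker peptide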
# Target sequence (P25090 whole entry, looked up): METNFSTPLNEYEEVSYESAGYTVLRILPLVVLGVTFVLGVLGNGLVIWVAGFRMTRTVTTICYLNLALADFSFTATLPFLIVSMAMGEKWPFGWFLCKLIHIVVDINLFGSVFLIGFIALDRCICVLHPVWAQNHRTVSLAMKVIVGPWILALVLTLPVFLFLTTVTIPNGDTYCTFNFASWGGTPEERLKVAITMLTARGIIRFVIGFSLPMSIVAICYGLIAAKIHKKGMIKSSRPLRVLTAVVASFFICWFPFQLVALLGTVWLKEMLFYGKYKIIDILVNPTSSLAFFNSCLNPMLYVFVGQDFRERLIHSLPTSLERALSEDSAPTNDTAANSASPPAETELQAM
# FPR ligand: human FPR ligand, with FPRL1 counter-screen | 24,000 tested, 0.74% active | P21462 | inhibition, %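 (tested at 6.7 µM)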 | FPR-expressing cells, fluorescent ligand binding, flow cytometry;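 note: 0% = buffer wells and 100% = receptor blocker peptide wells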
# Target sequence (P21462 whole entry, looked up): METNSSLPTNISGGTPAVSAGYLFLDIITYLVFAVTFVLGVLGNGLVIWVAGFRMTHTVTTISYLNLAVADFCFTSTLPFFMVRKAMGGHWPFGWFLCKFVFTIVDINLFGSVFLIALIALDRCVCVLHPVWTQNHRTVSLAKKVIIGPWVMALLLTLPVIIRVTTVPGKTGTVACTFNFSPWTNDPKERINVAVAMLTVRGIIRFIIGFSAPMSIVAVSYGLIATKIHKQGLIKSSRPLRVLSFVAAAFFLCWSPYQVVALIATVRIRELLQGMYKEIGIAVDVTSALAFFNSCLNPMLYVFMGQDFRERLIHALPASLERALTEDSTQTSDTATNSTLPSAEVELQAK
# VCAM-1 down imaging: suppression of endothelial VCAM-1 upregulation – imaging, high-content imaging, pooled HUVEC, TNFa stimulus (AID 456); 10,000 tested, 0.2% active; HUVEC TNFa-induced VCAM-1 surface expression, immunofluorescence imaging; numbers were filed only for top-ranked candidate wells; inhibition, % at 5 µM, or IC50 in µM where a hit was titrated;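 active = top tenth filtered wells with inhibition above zero that passed visual or statistical confirmation; inactive = the rest, including hits rejected on review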;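 note: 0% = stimulated vehicle wells and 100% = unstimulated cells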
# Starred values were filed as active, the others as inactive; i = inactive; . = no result given.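 Rule for the calls, unless noted: active = mean above 30%; inconclusive = self-fluorescent; inactive = the rest.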 These rows are one share of the data, so the mix of outcomes need not match the whole.
# Start of the data: the first 18 compounds (preview)
SMILES,VCAM-1 inhibition,VCAM-1 up imaging,FPRL1 binder,FPR ligand,VCAM-1 down imaging
Cn1cnnc1Sc1nc2c(c(=O)n(C)c(=O)n2C)n1Cc1ccccc1Cl,i,i,-2,0,i
CCCCCn1c(SCC2CCCO2)nc2cc(C(=O)N3CCC(C(N)=O)CC3)ccc2c1=O (stereo unspecified),.,.,-2,2,.
COc1ccc(S(=O)(=O)Nc2ccccc2OC)cc1C,i,i,-8,0,i
COc1ccc(C2C(C(=O)N3CCN(c4ccc(OC)cc4)CC3)c3ccccc3C(=O)N2C)cc1 (stereo unspecified),.,.,-13,-11,.
CC(=O)c1c(C)nn(C(C)CC(=O)O)c1C (stereo unspecified),i,i,-1,-3,i
Cc1occc1C(=O)Nc1ccc(S(=O)(=O)N2CCN(C)CC2)cc1,i,i,2,16,i
COc1ccc(Cl)cc1C(=O)Nn1c(C)nc2ccccc2c1=O,.,.,9,0,.
CC1CCN(C(=O)CSc2nc3c(cnn3-c3ccccc3)c(=O)[nH]2)CC1,i,i,0,2,i
COc1ccc(S(=O)(=O)Cc2ccc(C(=O)NCc3ccccn3)o2)cc1,.,.,5,1,.
Cc1onc(-c2ccccc2Cl)c1C(=O)NCCCN1CCOCC1,.,.,4,1,.
COc1ccc(NC(=O)Cn2cccc2)cc1Cl,.,.,-2,-2,.
CCCc1cc(C(=O)NCCc2ccccc2)no1,.,.,-5,1,.
Cc1ccc(C)c(N2CCN(C(=O)C3CCN(c4nnc(N5CCCC5=O)s4)CC3)CC2)c1,.,.,-2,1,.
Cc1cc(N2CCOCC2)nc2ccc(NC(=O)CCC(=O)N3CCC(C)CC3)cc12,.,.,-4,-3,.
O=S(=O)(c1cccs1)N1CCN(c2ccccn2)CC1,.,.,10,0,.
O=C(CN1C(=O)CSC1=O)Nc1ccc(N2CCOCC2)cc1,i,i,0,-4,i
O=C1SC(c2ccccc2)=N/C1=C/c1ccco1,.,.,-1,3,.
CC#CCCCC(=O)Nc1cc(OC)nc(OC)n1,.,.,-2,1,.

# All compounds of this part, previewed entries included:
SMILES,VCAM-1 inhibition,VCAM-1 up imaging,FPRL1 binder,FPR ligand,VCAM-1 down imaging
Cn1cnnc1Sc1nc2c(c(=O)n(C)c(=O)n2C)n1Cc1ccccc1Cl,i,i,-2,0,i
CCCCCn1c(SCC2CCCO2)nc2cc(C(=O)N3CCC(C(N)=O)CC3)ccc2c1=O (stereo unspecified),.,.,-2,2,.
COc1ccc(S(=O)(=O)Nc2ccccc2OC)cc1C,i,i,-8,0,i
COc1ccc(C2C(C(=O)N3CCN(c4ccc(OC)cc4)CC3)c3ccccc3C(=O)N2C)cc1 (stereo unspecified),.,.,-13,-11,.
CC(=O)c1c(C)nn(C(C)CC(=O)O)c1C (stereo unspecified),i,i,-1,-3,i
Cc1occc1C(=O)Nc1ccc(S(=O)(=O)N2CCN(C)CC2)cc1,i,i,2,16,i
COc1ccc(Cl)cc1C(=O)Nn1c(C)nc2ccccc2c1=O,.,.,9,0,.
CC1CCN(C(=O)CSc2nc3c(cnn3-c3ccccc3)c(=O)[nH]2)CC1,i,i,0,2,i
COc1ccc(S(=O)(=O)Cc2ccc(C(=O)NCc3ccccn3)o2)cc1,.,.,5,1,.
Cc1onc(-c2ccccc2Cl)c1C(=O)NCCCN1CCOCC1,.,.,4,1,.
COc1ccc(NC(=O)Cn2cccc2)cc1Cl,.,.,-2,-2,.
CCCc1cc(C(=O)NCCc2ccccc2)no1,.,.,-5,1,.
Cc1ccc(C)c(N2CCN(C(=O)C3CCN(c4nnc(N5CCCC5=O)s4)CC3)CC2)c1,.,.,-2,1,.
Cc1cc(N2CCOCC2)nc2ccc(NC(=O)CCC(=O)N3CCC(C)CC3)cc12,.,.,-4,-3,.
O=S(=O)(c1cccs1)N1CCN(c2ccccn2)CC1,.,.,10,0,.
O=C(CN1C(=O)CSC1=O)Nc1ccc(N2CCOCC2)cc1,i,i,0,-4,i
O=C1SC(c2ccccc2)=N/C1=C/c1ccco1,.,.,-1,3,.
CC#CCCCC(=O)Nc1cc(OC)nc(OC)n1,.,.,-2,1,.
Cc1ccc(S(=O)(=O)N2CCC(C(=O)N3CCN(Cc4ccccc4)CC3)CC2)cc1,i,i,3,2,i
Clc1cccc2sc(N3CCN(c4ccccc4)CC3)nc12,.,.,0,0,.
COc1cc(NC(=O)c2noc3c2CCC3)c(OC)cc1Cl,.,.,4,2,.
Cc1nc2cc(-c3cccc(F)c3)nn2c(C)c1CCC(=O)NC(C)CCc1ccco1 (stereo unspecified),.,.,-10,4,.
Cc1cccc(-n2c(SCc3cc(=O)n4ccsc4n3)nc3ccccc32)c1,i,i,4,-4,i
COc1cc(C)c(-c2cc(C(=O)O)c(C)o2)cc1C(C)C,i,i,11,5,i
COCCNC(=O)c1ccc(CS(=O)(=O)c2ccc(OC)cc2)o1,i,i,1,1,i
CCOC(=O)c1csc(Nc2nc3ccc(F)cc3s2)n1,.,.,-3,1,.
CN1C(=O)OC2(C)CCc3ccccc3C12C (stereo unspecified),.,.,5,-2,.
O=C(C1CCCO1)N1CCN(C(c2ccccc2)c2ccccc2)CC1 (stereo unspecified),i,i,1,4,i
COc1ccc(CCNC(=O)CSc2nnc(CNc3ccc(Cl)cc3)o2)cc1OC,i,i,-2,2,i
COc1ccc(Cl)cc1N1C(=O)C2CCCN2C1c1ccc(F)c(F)c1 (stereo unspecified),.,.,2,2,.
O=C(NCC1COc2ccccc2O1)c1ccc(NC(=O)c2ccco2)cc1 (stereo unspecified),i,i,-23,-15,i
Cn1c(N2CCC(C(N)=O)CC2)nc2c1c(=O)n(Cc1ccc(Br)cc1)c(=O)n2C,i,i,-2,-7,i
Cc1ccc(CNC(=O)CCCn2c(=O)c3ccccc3n(CC(=O)NCc3ccco3)c2=O)cc1,i,i,5,-3,i
COc1ccc(C2=NOC(C(=O)NC3CCCCC3)C2)cc1OC (stereo unspecified),i,i,0,2,i
Cc1cccc(N2CCN(C(=O)C3CCCN(S(=O)(=O)c4cnc[nH]4)C3)CC2C)c1 (stereo unspecified),i,i,0,3,i
COC(=O)c1cc(NC(=O)C2COc3ccccc3O2)cc(C(=O)OC)c1 (stereo unspecified),i,i,0,2,i
CCC(=O)Oc1ccc(C(CC)C(CC)c2ccc(OC(=O)CC)cc2)cc1 (stereo unspecified),i,i,-1,5,i
CCN1CCN(Cc2c(O)ccc3c(=O)c(-c4ccc(OC)c(OC)c4)c(C(F)(F)F)oc23)CC1,.,.,-3,-8,.
COc1cccc(NC(=O)CSc2nnc(-c3cccs3)n2C)c1,i,i,0,3,i
O=C(Cc1coc(-c2ccc(F)cc2)n1)NC1CCCCC1,.,.,-3,-1,.
COc1ccc(S(=O)(=O)N2CCCN(CC(=O)Nc3ccc(OC)c(Cl)c3)CC2)cc1,.,.,2,10,.
O=C(CSc1ncccn1)c1ccccc1Br,i,i,-3,0,i
Nc1nc2n(n1)C(c1ccc(Cl)cc1)CC(c1ccc(F)cc1)N2 (stereo unspecified),.,.,-6,-7,.
COc1ccc(S(=O)(=O)Cc2ccc(C(=O)NCc3cccnc3)o2)cc1,.,.,-7,0,.
CCc1c(C(=O)Nc2ncn(Cc3cccc(C)c3)n2)csc1C,i,i,6,10,i
C=Cn1nc(C)c2ccccc2c1=O,i,i,9,16,i
O=C(CN1C(=O)C2C3C=CC(C3)C2C1=O)N1CC(=O)N(CCc2ccccc2)C(=O)C1 (stereo unspecified),.,.,1,1,.
CCOC(=O)CNC(=O)CSc1nnc(Cn2c(=O)sc3ccccc32)n1C,.,.,4,-1,.
Cc1ccc(Cn2ccc(NC(=O)c3cc(-c4cccc(Cl)c4)on3)n2)cc1,.,.,-4,-1,.
CCNc1nc(N2CCOCC2)nc(N(c2ccccc2)c2ccccc2)n1,i,i,0,-1,i

# New compounds follow.
SMILES,VCAM-1 inhibition,VCAM-1 up imaging,FPRL1 binder,FPR ligand,VCAM-1 down imaging
O=C1Nc2ccccc2SC(c2ccccc2)C1O (stereo unspecified),.,.,6,1,.
CC(C)c1cc(C(=O)NC2CCCCC2)no1,.,.,-16,0,.
CC(C)(C)c1cc(C(=S)N2CCN(CCO)CC2)cc(C(C)(C)C)c1O,i,i,-4,-8,i
O=C(CC1Nc2ccccc2NC1=O)NCC1COc2ccccc2O1 (stereo unspecified),.,.,9,-1,.
CC(=O)Nc1ccc(S(=O)(=O)NCc2csc(-c3cccnc3)n2)cc1,i,i,0,2,i
O=C(C1CCN(S(=O)(=O)c2cccc3cccnc23)CC1)N1CCN(C2CCCC2)CC1,.,.,2,-1,.
Nc1nnnn1/N=C/c1ccccc1OCc1ccc(Cl)cc1Cl,.,.,2,-2,.
CN(C)c1ccc(C2C=C(c3ccc(Cl)cc3OC(F)F)Nc3ncnn32)cc1 (stereo unspecified),.,.,-32,-29,.
Cc1nnc(SCC(=O)N2CCC(C(=O)Nc3nccs3)CC2)n1Cc1ccccc1,i,i,20,1,i
Cn1c(=O)oc2cc(S(=O)(=O)N3CCC(C(=O)NCc4cccs4)CC3)ccc21,.,.,6,1,.
CCC(C)Nc1nc(OCC(F)(F)F)nc(OCC(F)(F)F)n1 (stereo unspecified),.,.,-6,6,.
COc1ccc(-c2cc(C(=O)Nc3ccc(C)cc3)no2)cc1,i,i,8,-1,i
CCCn1cc(SCC(=O)NCc2ccco2)c2ccccc21,i,i,4,13,i
CC1(C)Cc2cccc(OCC(O)CN3CCN(c4ccccn4)CC3)c2O1 (stereo unspecified),i,i,2,-9,i
CCC(=O)Nc1nonc1-c1nc2ccccc2n1CC(C)C,.,.,2,-5,.
O=C(O)CC1C(=O)OCN1C(=O)OCc1ccccc1 (stereo unspecified),.,.,-2,0,.
c1ccc(CC2CCN(Cc3nc(-c4ccccc4)no3)CC2)cc1,i,i,-10,7,i
O=C(NCC1CCCO1)c1ccc(/C=N/O)nc1 (stereo unspecified),.,.,-2,-3,.
CC(C)COC(=O)C1C2C=CC3(CN(C4CCCC4)C(=O)C13)O2 (stereo unspecified),.,.,3,-1,.
O=C1CCCC2=C1C(c1ccsc1)CC(=O)N2c1ccccc1 (stereo unspecified),i,i,0,6,i

# Next part, starting with the last 2 of the part before.
SMILES,VCAM-1 inhibition,VCAM-1 up imaging,FPRL1 binder,FPR ligand,VCAM-1 down imaging
CC(C)COC(=O)C1C2C=CC3(CN(C4CCCC4)C(=O)C13)O2 (stereo unspecified),.,.,3,-1,.
O=C1CCCC2=C1C(c1ccsc1)CC(=O)N2c1ccccc1 (stereo unspecified),i,i,0,6,i
CCOC(=O)C1CCCN(C(=O)C2CCN(c3nnc(-n4cccc4)s3)CC2)C1 (stereo unspecified),.,.,2,-3,.
Cc1nc2sc3c(c2c(=O)o1)CCC3,i,i,0,-7,i
Oc1ccccc1CNc1nc2ccccc2n1CCN1CCCCC1,.,.,2,-7,.
CC(C)Oc1ccc(N2CC(C(=O)Nc3ccc4c(c3)OCO4)CC2=O)cc1 (stereo unspecified),.,.,5,10,.
Cc1cc(NC(=O)CS(=O)(=O)c2cn(Cc3cccc(F)c3)c3ccccc23)no1,i,i,-10,2,i
C=CCn1cc(Cl)c(=O)n(CC=C)c1=O,.,.,-2,0,.
COc1ccc(OC)c(S(=O)(=O)Nc2ccc(OCC(=O)O)cc2)c1,.,.,1,-8,.
N#Cc1nc(-c2ccco2)oc1NCc1ccco1,i,i,2,-3,i
Cc1ccc(S(=O)(=O)N2CCN(S(=O)(=O)N(C)C)CC2)cc1,i,i,9,13,i
COC(=O)CSC1=C(C#N)C(c2ccccc2)CC(=O)N1 (stereo unspecified),i,i,3,8,i
CC1(C(=O)NC2CCCCCC2)CCC(=O)N1Cc1ccc2c(c1)OCO2 (stereo unspecified),.,.,-5,-6,.
Cc1cc(NC(=O)c2cc(-c3ccco3)on2)nn1Cc1ccc(Cl)cc1,.,.,3,4,.
COC(=O)c1ccccc1NC(=O)C1CCCN(c2nnc(-n3cccc3)s2)C1 (stereo unspecified),.,.,-2,3,.
Cc1n[nH]c(C)c1S(=O)(=O)N1CCCC(C(=O)N2CCc3ccccc32)C1 (stereo unspecified),.,.,0,1,.
CC(C)(C)n1nnnc1CN(Cc1ccco1)Cc1cc2cc3c(cc2[nH]c1=O)OCO3,i,i,-4,2,i
O=C(NCc1ccncc1)/C(=N/O)c1ccccc1,.,.,4,-1,.
CCc1ccc2c(CN(CC)Cc3nc4ccccc4c(=O)[nH]3)cc(=O)oc2c1,i,i,-4,2,i
COc1ccc(N2C(=O)CC(NC3CC3)C2=O)cc1 (stereo unspecified),i,i,-1,-1,i
Cc1nnc(N2C(=O)C(O)=C(C(=O)c3ccco3)C2c2ccc(C(C)(C)C)cc2)s1 (stereo unspecified),.,.,-22,26,.
CCCCN(C(=O)NC(=O)Nc1ccccc1OCC)S(C)(=O)=O,.,.,6,2,.
